miR-21 FLuc = raises the signal of a miR-21 reporter | HeLa miR-21 FLuc reporter, luciferase, 48 h | Potency, µM (top dose mostly 38.3 µM), for the others: top-dose reporter change, positive = more light | 340,000 tested, under 10 active; active = well fitted rising curve with a large enough effect; inconclusive = small, poorly fitted or top-dose-only effect; inactive = no such curve, though single readings can be large or run the other way;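 further: % of control where 0% means no effect; miR-21 action dims this reporter so a rising signal means less miR-21 action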
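Luminescence from a firefly luciferase reporter carrying a miR-21 binding site downstream, stably expressed under a CMV promoter in HeLa cells that make miR-21 endogenously, reports miRNA modulation after 48 h compound exposure up to approximately 40uM final.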
GLA inh pH 4.5 = inhibitors of human alpha-galactosidase A at pH 4.5; P06280; purified enzyme, 4-MU-alpha-Gal fluorescence, pH 4.5; activity change, negative = inhibition, % at 105 µM; 230,000 tested, under 10 active; inconclusive = small, poorly fitted or top-dose-only inhibition, or a rising curve; inactive = flat fitted curve, though single readings scatter; no compound was filed as active;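 further: 0% = full activity with enzyme and -100% = basal without enzyme; dose as in the result columns while the protocol names 77 µM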
Rango dissoc inh = inhibitors of RanGTP-induced Rango-importin beta complex dissociation. Biochemical FRET Rango-importin beta, RanGTP-induced dissociation. Potency, µM (series often up to 46.1 µM), for inactives: at the highest dose activity change, negative = inhibition. actives 0.071% (n = 340,000). AID 540253; active means falling FRET ratio curve, often poorly fitted, with flat reads before Ran was added; inconclusive means other falling curves, or compound fluorescence or quenching; inactive means flat or rising ratio curve;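 further: potency means the concentration at half of the fitted maximal effect; % of control where 0% means no effect; nearly all actives have a fitted effect of over 45% in size; -100% = wells without RanGTP and RCC1; the record marks most hits as doubtful in a second field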
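Compounds preincubate 5 min with complex of recombinant Rango and importin beta in PBS with 1 mM DTT. Ran (0.6 uM) loaded with 2 mM GTP plus 0.2 uM RCC1 starts dissociation; FRET is recorded 45 min later.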
Rango-impB inh = Rango-importin beta binding inhibition; actives 0.031% (n = 340,000); AID 540263; Rango CFP/YFP FRET sensor + importin beta, 45 min; Potency, µM (series often up to 92.2 µM), inactives show top-dose inhibition of complex formation; Q14974; active = rising FRET ratio curve, often small or poorly fitted; inconclusive = mostly compound fluorescence or quenching in the first reads; inactive = flat curves in all reads;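 further: potency means the concentration at half of the fitted maximal effect; 0% = DMSO wells and 100% = buffer wells lacking importin beta; nearly all actives have a fitted effect of over 15% in size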
Target sequence (Q14974 whole entry, looked up): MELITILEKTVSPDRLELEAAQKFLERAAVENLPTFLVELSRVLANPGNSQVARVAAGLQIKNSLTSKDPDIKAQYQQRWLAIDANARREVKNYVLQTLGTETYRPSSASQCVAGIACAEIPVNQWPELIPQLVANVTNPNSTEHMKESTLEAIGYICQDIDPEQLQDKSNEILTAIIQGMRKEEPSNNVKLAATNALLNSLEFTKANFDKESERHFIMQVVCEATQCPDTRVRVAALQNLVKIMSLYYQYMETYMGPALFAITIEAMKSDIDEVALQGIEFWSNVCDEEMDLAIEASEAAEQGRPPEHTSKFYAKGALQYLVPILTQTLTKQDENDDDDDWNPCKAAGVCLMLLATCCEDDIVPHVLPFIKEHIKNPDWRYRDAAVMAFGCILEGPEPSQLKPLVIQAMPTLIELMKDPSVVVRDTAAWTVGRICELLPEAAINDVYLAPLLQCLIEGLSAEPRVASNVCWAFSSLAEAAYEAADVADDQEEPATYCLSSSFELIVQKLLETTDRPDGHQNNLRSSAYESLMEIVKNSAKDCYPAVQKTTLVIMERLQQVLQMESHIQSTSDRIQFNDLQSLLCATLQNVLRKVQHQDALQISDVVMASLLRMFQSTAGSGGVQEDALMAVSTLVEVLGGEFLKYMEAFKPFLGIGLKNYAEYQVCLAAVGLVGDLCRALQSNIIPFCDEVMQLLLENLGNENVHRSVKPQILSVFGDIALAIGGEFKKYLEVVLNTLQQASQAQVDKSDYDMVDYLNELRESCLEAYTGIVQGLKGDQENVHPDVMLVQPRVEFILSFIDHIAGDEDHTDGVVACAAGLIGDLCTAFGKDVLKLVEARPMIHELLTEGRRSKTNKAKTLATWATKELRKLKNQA
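FRET biosensor (snurportin 1 IBB flanked by EYFP and cerulean), 50 nM, with compound 5 min, then 0.125 microM importin beta in PBS, 1 mM DTT, 0.02% Tween-20, 0.1% BSA. CFP/YFP ratio read after 45 min at room temperature; pre-read flags interference.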
* hit, by the source's call; ? = inconclusive; . = no result given; & = joins results of further samples. Not all compounds are listed. The share of hits here may be higher or lower than overall.

miR-21 FLuc | GLA inh pH 4.5 | Rango dissoc inh | Rango-impB inh | SMILES
0% | 3 | 3% | -3.0% | CCOc1cc(C2NC(=O)NC(O)(C(F)(F)F)C2C(=O)c2ccc(OC)cc2)ccc1O (stereo not given)
-36% | 6 | -13% | -2.1% | Cc1cc(NC(=O)c2ccccc2Cl)no1
3% | . | -8% | 0.1% | COc1ccc(NC(=O)CCNC(=O)Cn2cnc3sc4c(c3c2=O)CCCC4)cc1OC
. | . | 10% | -2.9% | CCN(C(=O)CN1CCC(C)CC1)c1c(N)n(Cc2ccccc2)c(=O)[nH]c1=O
-1% | 6 | 0% | -2.3% | CCC1(c2ccc(F)cc2)NC(=O)N(CC(=O)N2CCOCC2)C1=O (stereo not given)
2% | -4 | -16% | -0.6% | O=C(COC(=O)Cn1cnc2ccccc2c1=O)Nc1ccc2c(c1)OCO2
-19% | 0 | 26% | -3.6% | CC(=O)N/C(=N\OCc1ccc(Br)cc1)c1nonc1NC(C)=O
0% | 1 | -4% | -2.8% | Cc1ccc(NC(=S)N2CCN(C(=O)C3CCCO3)CC2)c(C)c1 (stereo not given)
-9% | 2 | 2% | -2.0% | COc1ccc2nnc(-c3ccccc3)n2n1
-39% | 22 | 0% | -3.5% | CC12COC3(C(=O)NCCc4ccccc4)CC1CCC32C (stereo not given)
6% | 2 | -12% | -1.4% | CC(=O)N(CCC(Cc1ccccc1)c1ccc2c(c1)OCO2)Cc1ccc(Cl)cc1 (stereo not given)
-2% | -4 | -7% | -0.2% | COC(=O)c1c(NC(=O)c2c(-c3ccccc3Cl)noc2C)sc2c1CCC2
-1% | 1 | 13% | 0.5% | O=C1CCC([N+](=O)[O-])C(c2ccccc2Cl)N1 (stereo not given)
-2% | 3 | 1% | -0.9% | O=C(COC(=O)Cc1cccs1)Nc1ccccc1
-18% | 5 | -4% | -3.4% | C/C(=N\NC(=O)c1ccc(Br)cc1)c1cccc(NC(=O)c2cccnc2)c1
-51% | 9 | 4% | ? | COc1ccc2nc(/C=N/NC(=O)[C@@H]3CCCN3C(=O)OC(C)(C)C)ccc2c1
2% | -3 | -15% | -0.4% | COc1ccccc1CN1C[C@@H]2C[C@@H](c3[nH]c4c(C)cccc4c3C)N3CCC[C@@]23C1=O
15% | 2 | 1% | -3.6% | C=CCn1c(CNC(=O)c2cccs2)nnc1SCc1ccc(Cl)cc1Cl
-4% | 4 | -5% | -0.7% | Cc1cc(NC(=O)CCC(=O)N(CC2CCCO2)C(C(=O)NC2CCCC2)c2cccnc2)no1 (stereo not given)
? | -12 | 0% | -1.5% | COc1cc(NC(=O)c2ccccc2NS(=O)(=O)c2ccc(Cl)s2)cc(OC)c1
12% | 2 | ? | ? | O=C(N/N=C/c1cc(Cl)ccc1O)c1ccncc1
2% | . | 3% | 2.9% | CCOc1ccccc1N(CC(=O)NCCSCc1ccco1)S(=O)(=O)c1ccccc1
-7% | -10 | -17% | -3.1% | CC(=O)Nc1ccc(OC(=O)c2c(-c3ccccc3Cl)noc2C)cc1
4% | . | 6% | -1.2% | CCc1cccc(N(C(=O)c2csnn2)C(C(=O)NC2CCCCC2)c2cccnc2)c1 (stereo not given)
-1%&18% | . | 9% | 5.4% | COc1ccc(-c2cc(C(=O)N3CCN(c4ccc(F)cc4)CC3)no2)cc1OC
-6% | 7 | 0% | -0.2% | COCCNc1nnc(SCC(=O)c2c[nH]c3ccccc23)s1
-6% | . | 12% | -5.0% | Cc1ccc(C(O)CCc2ccc(N)cc2)cc1 (stereo not given)
-3% | 1&6 | . | . | N=C(N)N1CCc2ccccc2C1
-2% | . | 4% | 2.0% | CC1CCc2sc(NC(=O)c3ccc(N4C(=O)CCC4=O)cc3)c(C(N)=O)c2C1 (stereo not given)
0% | -12 | 15% | 0.9% | Cc1ccc(N=Cc2c(C)[nH]n(-c3ccccc3)c2=O)nc1

Sorted by SMILES length (ascending): 5 of the compounds above.
miR-21 FLuc | GLA inh pH 4.5 | Rango dissoc inh | Rango-impB inh | SMILES
-2% | 3 | 1% | -0.9% | O=C(COC(=O)Cc1cccs1)Nc1ccccc1
-19% | 0 | 26% | -3.6% | CC(=O)N/C(=N\OCc1ccc(Br)cc1)c1nonc1NC(C)=O
-1% | 6 | 0% | -2.3% | CCC1(c2ccc(F)cc2)NC(=O)N(CC(=O)N2CCOCC2)C1=O (stereo not given)
-1%&18% | . | 9% | 5.4% | COc1ccc(-c2cc(C(=O)N3CCN(c4ccc(F)cc4)CC3)no2)cc1OC
? | -12 | 0% | -1.5% | COc1cc(NC(=O)c2ccccc2NS(=O)(=O)c2ccc(Cl)s2)cc(OC)c1

The listing continues.
miR-21 FLuc | GLA inh pH 4.5 | Rango dissoc inh | Rango-impB inh | SMILES
-40% | . | -3% | 0.5% | CC(C)NS(=O)(=O)c1ccc(NC(=O)Cc2ccsc2)cc1
-2% | -8 | 4% | 1.1% | CS(=O)(=O)N1CCN(C(=O)c2ccccc2)C1
-13% | -2 | 6% | ? | Cc1nc(=S)c2ccccc2[nH]1
-5% | -1 | -13% | -3.1% | CN(CCCn1c(=S)[nH]c2ncccc2c1=O)Cc1ccccc1
-10% | . | 0% | 0.9% | Cc1cccc(C(=O)N2CCCC(N3CCN(Cc4ccc5c(c4)OCO5)CC3)C2)n1 (stereo not given)
-48% | 3 | -16% | -0.1% | O=c1n(Cc2ccc(F)cc2)nc2n1-c1ccccc1SC2
-5% | -2 | -13% | -0.2% | CCOC(=O)c1c(NC(=O)c2cccs2)sc(CC)c1-c1cccs1
-2% | . | 2% | -2.6% | O=C(O)COc1ccccc1/C=N/n1c(C2CCCCC2)n[nH]c1=S
20% | 6 | 1% | 0.0% | Cc1cc(C(=O)N2CCc3c([nH]c4ccccc34)C2c2cccc(Cl)c2)nn1C (stereo not given)
-39% | 8 | -7% | -2.0% | O=C(O)C1CCCCC1C(=O)Nc1ccc(-c2ccccc2)cc1 (stereo not given)
-52% | -4 | -12% | 0.1% | Cc1cc2ncn(CCOc3ccccc3)c2cc1C
-1% | -1 | ? | ? | CCOC(=O)/C(C#N)=C/c1ccc(N2CCN(C)CC2)cc1
. | . | 0% | 4.0% | O=C(CN1CCN(S(=O)(=O)c2ccc(Cl)c(Cl)c2)CC1)N1CCCCC1
. | . | 0% | -0.8% | COc1cc(/C=C/C(=O)OCC(=O)NCCN2C(=O)CSC2=O)ccc1OCC#N
. | . | 14% | 0.1% | CC(=O)Nc1cccc(/C(C)=N/Nc2ccc(S(=O)(=O)Nc3ccccc3C(=O)O)cc2[N+](=O)[O-])c1
0% | -10 | 0% | 0.4% | O=C(NNc1cccc(Cl)c1)c1cccnc1Oc1ccccc1
-15% | -1 | 2% | -0.7% | CC(C)(C)C1CCc2c(sc(NC(=O)c3cccs3)c2C(N)=O)C1 (stereo not given)
1% | 7 | 19% | -1.0% | CCN(CC)c1ccc(C=C2C(=O)OC(c3ccccc3)OC2=O)cc1 (stereo not given)
. | . | -9% | -2.4% | Cc1ccc(C)c(NC(=O)CN(C)C(=O)c2cc3c(s2)CCCCC3)c1
4% | -3 | 0% | 0.1% | O=C(CCN1CCOCC1)Nc1c(-c2ccccc2)c2cc(Br)ccc2[nH]c1=O
-4% | 0 | -2% | 0.9% | CC(C)(C)N1C(=O)c2ccccc2NC(=O)N1Cc1ccccc1
-7% | . | 16% | -1.5% | Cc1ccc(N2C(=O)c3ccccc3C(C)(C)C2=O)cc1
? | 4 | -1% | 0.4% | Cn1c(SC2=CS(=O)(=O)c3ccccc32)nc2ccccc21
-20% | 1 | -7% | -1.6% | COc1ccc2c(c1O)Cc1ccccc1C2=O
. | . | 8% | 2.4% | O=S(=O)(c1cccc2ccccc12)N1CCC2CC1c1cc(Cl)ccc12 (stereo not given)
-7% | -6 | 14% | -0.4% | O=C(c1ccc(COc2ccccc2Cl)o1)N1CCN(c2ccccc2)CC1
-23% | -8 | -8% | 1.7% | C/C(=N/NC(=O)c1cc2ccccc2cc1O)C1C(=O)c2ccccc2C1=O
-10% | 2 | -9% | 1.4% | CS(=O)(=O)n1nc(OC(=O)c2cccc3ccccc23)cc1N
-23% | 6 | 0% | 0.0% | CCc1nnc(NC(=O)CSc2nc(-c3ccc(OC)cc3)ns2)s1
0% | . | -3% | -4.6% | O=C(COc1ccc(Cl)cc1)NCCNC(=O)c1ccccn1
-34% | -1 | -7% | 1.7% | O=C(CCSc1ccccc1)Nc1nc2c(s1)CCCC2
-10% | -10 | 10% | -3.7% | COc1ccc(CCNc2oc(-c3ccccc3OC)nc2C#N)cc1
2% | 1 | 22% | 2.5% | NC(=S)Nc1ncc(CCN2CCOCC2)c(-c2ccc(F)cc2)n1
-42% | -9 | -18% | -1.0% | c1ccc2cc3[nH]c(CN4CCCCC4)nc3cc2c1
0% | -5 | 2% | -0.4% | O=C(CCCC(=O)OCC(=O)c1ccc(F)cc1)Nc1cc(C(F)(F)F)ccc1Cl
22% | . | -10% | -1.1% | ClCc1nc2ccccc2n1Cc1ccccc1
-1% | 6 | -1% | -3.1% | O=C(Nc1nnc(C2CC2)o1)c1ccc(S(=O)(=O)N2CCc3ccccc3C2)cc1
-4% | 3 | ? | -1.8% | Cc1oc2c(c1C(=O)NCCCC(=O)O)CCCC2
-1% | . | 0% | 4.4% | CC(C)(C)c1ccc(S(=O)(=O)N2CCC(NC(=O)c3ccco3)CC2)cc1
0% | -5 | 4% | -0.8% | Cc1ccc(-n2c(SCC(=O)Nc3ccc4c5c(cccc35)CC4)nc(O)c(C)c2=O)cc1
-32% | 7 | 4% | 0.4% | COc1cc(C2Nc3ccccc3C(=O)N2c2ccccc2)c(Br)cc1OCC(=O)O (stereo not given)
. | . | 6% | 0.3% | CCCCCCC(=O)N1CCN(c2cc3c(cc2F)c(=O)c(C(=O)O)cn3CC)CC1
-3% | -1 | 1% | -0.1% | CCN(CC)S(=O)(=O)c1ccc(N2CCN(c3cccc(OC)c3)CC2)c([N+](=O)[O-])c1
-5% | -2 | 27% | -1.0% | Cc1ccc(NC(=O)CN2C(=O)C3C4C=CC(C4)C3C2=O)cc1S(=O)(=O)N(C)C (stereo not given)
. | . | -8% | -4.6% | CN(C)C(CNC(=O)c1cccc(S(=O)(=O)Nc2ccc(Br)cc2)c1)c1ccco1 (stereo not given)
-1% | -2 | -9% | 3.2% | CCOC(=O)N1CCN(c2c(N3CCN(c4cc(C)ccc4C)CC3)c(=O)c2=O)CC1
0% | 3 | 2% | ? | O=C(c1ccc(F)cc1F)N1CCN(c2n[nH]c(=O)[nH]c2=O)CC1
0% | -29 | -23% | 1.3% | CN1CCCN(c2ccc([N+](=O)[O-])cc2)CC1
-1% | -3&-7 | . | . | CC1(OC(=O)CCc2ccccc2)C(=O)C=C2C=C(c3ccsc3)OC=C2C1=O (stereo not given)
1% | 2 | -11% | -1.3% | CC(C)OC(=O)CCC(=O)Nc1ccc(F)cc1
10% | -3 | 0% | -0.2% | CCOC(=O)c1cccc(NC(=O)/C=C/c2ccc3c(c2)OCO3)c1
7% | . | -2% | 3.3% | COc1ccc(-n2nc(C(=O)NCC(=O)NCc3ccc(F)cc3)c3ccccc3c2=O)cc1

Entries above containing a nitro group on carbon (four):
miR-21 FLuc | GLA inh pH 4.5 | Rango dissoc inh | Rango-impB inh | SMILES
-1% | 1 | 13% | 0.5% | O=C1CCC([N+](=O)[O-])C(c2ccccc2Cl)N1 (stereo not given)
. | . | 14% | 0.1% | CC(=O)Nc1cccc(/C(C)=N/Nc2ccc(S(=O)(=O)Nc3ccccc3C(=O)O)cc2[N+](=O)[O-])c1
-3% | -1 | 1% | -0.1% | CCN(CC)S(=O)(=O)c1ccc(N2CCN(c3cccc(OC)c3)CC2)c([N+](=O)[O-])c1
0% | -29 | -23% | 1.3% | CN1CCCN(c2ccc([N+](=O)[O-])cc2)CC1

Bioassay records: PubChem, National Center for Advancing Translational Sciences (NCATS)
